UUG fidelity – yeast start codon fidelity modulation | S. cerevisiae UUG-firefly luciferase reporter, luminescence/redox ratio | activity score, % at 18.7 µM | hit rate 0.13% among 350,000;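 active = replicate mean at a twofold rise or more, about +100% in these data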;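 note: firefly luciferase made from a UUG start codon reports start codon fidelity; reporter light over untreated wells divided by growth signal over untreated wells; some hits fall short of that in this replicate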
Env fusion inh – HIV envelope-mediated fusion inhibition | HeLa-JRFL Env/CEM21 cell fusion, luciferase | inhibition, % at 12.3 µM | hit rate 1.1% among 360,000;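 active = mean replicate inhibition score of at least 50 and every replicate individually at or above 50; inconclusive = only one of the two criteria met; inactive = mean below 50 and not all replicates reaching 50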;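 note: 0% = plate neutral controls and 100% = maraviroc near 300 nM; one replicate is shown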
CSC inhib – cancer stem cell inhibition; cancer stem cell-like cells viability, luminescence; inhibition, % at 7.5 µM; hit rate 1.1% among 300,000;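 active = mean at 75% or more and at least half the replicates too; inconclusive = mean and replicates disagree; tested in HMLE shEcad cells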;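 note: 0% = median of negative and 100% = median of positive control wells; the first replicate is given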
PABP polyA inh – PABP-poly(A) binding inhibition | hit rate 1% among 290,000 | AID 2014 | PABP-poly(A) RNA binding, fluorescence polarization | inhibition, % at 35 µM | P11940;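 active = 50% or more with normal probe brightness, or confirmed in later tests; inconclusive = above 50% with abnormal brightness, or retests that disagree; inactive = below 50% or failed in later tests; about a fifth of its hits are not listed in these tables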;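 note: calls also rest on retests at 20 µM and on dose response follow-up; controls were probe without protein and protein plus probe with vehicle; some compounds called inactive have numbers as strong as hits; many hits fall short of the cut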
Target sequence (P11940 whole entry, looked up): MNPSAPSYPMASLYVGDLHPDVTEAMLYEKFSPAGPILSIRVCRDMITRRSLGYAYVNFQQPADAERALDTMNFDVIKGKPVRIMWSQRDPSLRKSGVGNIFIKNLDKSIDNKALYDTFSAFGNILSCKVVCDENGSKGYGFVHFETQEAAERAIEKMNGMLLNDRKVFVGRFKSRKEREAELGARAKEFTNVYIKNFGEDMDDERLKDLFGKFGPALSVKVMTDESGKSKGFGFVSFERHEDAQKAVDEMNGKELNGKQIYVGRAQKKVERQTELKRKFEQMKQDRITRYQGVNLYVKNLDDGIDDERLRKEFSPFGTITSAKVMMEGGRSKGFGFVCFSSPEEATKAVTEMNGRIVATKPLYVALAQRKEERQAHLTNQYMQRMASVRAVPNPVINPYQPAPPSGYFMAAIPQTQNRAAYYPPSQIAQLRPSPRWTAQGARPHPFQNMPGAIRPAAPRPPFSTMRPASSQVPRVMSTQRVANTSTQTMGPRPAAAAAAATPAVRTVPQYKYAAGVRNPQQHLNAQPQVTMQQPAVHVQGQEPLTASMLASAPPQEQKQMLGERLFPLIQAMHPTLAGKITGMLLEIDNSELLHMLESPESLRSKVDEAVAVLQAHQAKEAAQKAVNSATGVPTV
Rce1 inh – yeast Ras-converting enzyme inhibition; yeast membranes, quenched prenylated peptide cleavage fluorescence; calls only; hit rate 0.27% among 290,000;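 active = fall in fluorescence gain of 50% or more versus controls, with final raw signal at or below 3038400; inconclusive = same 50% fall but final raw signal above 3038400; inactive = fall in fluorescence gain under 50%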;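 note: plate controls were neutral control wells for no effect and wells lacking membranes for full effect; tested at 10 µM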
Target sequence (Q03530 whole entry, looked up): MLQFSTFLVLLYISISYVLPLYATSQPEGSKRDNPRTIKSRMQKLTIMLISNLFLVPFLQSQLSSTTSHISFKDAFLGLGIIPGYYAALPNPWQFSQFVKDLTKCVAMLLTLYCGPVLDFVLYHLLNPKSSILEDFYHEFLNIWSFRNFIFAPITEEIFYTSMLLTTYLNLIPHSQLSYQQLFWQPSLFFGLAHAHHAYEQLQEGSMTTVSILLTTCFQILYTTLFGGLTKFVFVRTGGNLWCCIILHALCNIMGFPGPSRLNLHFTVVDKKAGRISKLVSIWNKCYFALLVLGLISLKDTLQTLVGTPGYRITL
MT1-MMP act inh – inhibitors of human MT1-MMP activation; HT1080 RFP-PRO-GFP cells, GFP/RFP ratio fluorescence, overnight; percent of plate control window, DMSO zero; GFP/RFP ratio change, % at 20 µM; hit rate 0.061% among 360,000;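 active = GFP/RFP ratio change of at least 30% with cell ATP level not reduced by more than half and red fluorescence within 50% of control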; note: strong numbers were not always called active
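Test system: HT1080 RFP-PRO-GFP cells; Benchmarks: DMSO and RFP-L50D-GFP cell wells; Timing: cells overnight before dosing, compound overnight, 37 °C, 5% CO2; Compound: one 20 µM compound dose with 1% DMSO; Read-out: GFP/RFP fluorescence ratio.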
eIF4H FP inh – inhibitors of RNA binding by human eIF4H; Q15056; eIF4H fluorescence polarization binding assay; hit rate 0.94% among 290,000; inhibition, % at 35 µM;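 active = 50% or more with normal probe brightness, or confirmed in later tests; inconclusive = above 50% with abnormal brightness, or retests that disagree; inactive = below 50% or failed in later tests; about a fifth of its hits are not listed in these tables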;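 note: calls also rest on retests at 20 µM and on dose response follow-up; 0% = protein and probe with vehicle and 100% = probe without protein; strong numbers were not always called active; many hits fall short of the cut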
eIF4H FP inh retest – second read-out of eIF4H FP inh, no call of its own (marks repeat the call); inhibition, %; compound at 20 µM; confirmation average;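 mean of two retest wells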
PABP polyA inh retest – also measured in PABP polyA inh; calls as there; inhibition, %; compound at 20 µM; confirmation repeats;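 mean of two retest wells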
MT1-MMP act inh RFP – recorded beside MT1-MMP act inh, whose call it bears; RFP signal change, %; measured here: RFP expression control read;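 0 = vehicle wells; hits needed this value within 50% of zero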
* = called active by the depositor; i = inactive; ? = inconclusive; / = not tested or not shown; + = active, no number; & = joins results of further samples.

SMILES | UUG fidelity | Env fusion inh | CSC inhib | PABP polyA inh | Rce1 inh | MT1-MMP act inh | MT1-MMP act inh RFP | eIF4H FP inh | others
Cc1cc(C)n(S(=O)(=O)c2cccc(Cl)c2Cl)n1 | 1 | -23 | -2 | -10 | i | 2 | -2 | 9
COc1cccc(/C=N/NC(=O)CCn2nnc3ccccc32)c1 | -14 | 10 | 1 | -10 | i | 0 | 2 | -3
CCO[C@@H]1OC(C(=O)Nc2ccccc2)=C[C@H](c2ccc(Br)cc2)[C@H]1CCCO | -12 | 7 | -10 | -4 | i | 3 | -4 | 3
COc1ccc([C@H]2N[C@]3(CCCN(Cc4ccc(F)cc4)C3=O)[C@H]3C(=O)N(Cc4ccccc4)C(=O)[C@@H]23)cc1 | -8 | -157 | / | / | / | -1 | -2 | /
CCOc1ccc(CCN2C(=S)N([C@@H](Cc3ccc(O)cc3)CN3CCC[C@@H]3CN3C(=S)NC[C@@H]3Cc3ccccc3)C[C@@H]2CC(C)C)cc1 | -14 | 15 | / | / | / | -5 | -12 | /
Cc1ccc(-c2nc3cc(N)ccc3o2)cc1Br | -34 | -103 | 23 | -6 | i | 0 | 1 | -5
Cc1ccc([C@H]2C(C(=O)O)=CC[C@@H](c3cccc(Cl)c3)N2S(=O)(=O)c2ccc(C)cc2)cc1 | 1 | -34 | / | / | / | -1 | 3 | /
Cc1cc(C=O)c(C)n1-c1ccc(Cl)c(C(=O)O)c1 | / | -2 | 11 | 30 | i | -2 | 4 | 104 | eIF4H FP inh retest=-4;PABP polyA inh retest=19
CC(C)CC(=O)NC(=S)Nc1ccc(NC(=O)c2ccco2)cc1 | -8 | 7 | -3 | -5 | i | 2 | 2 | -2
Cc1ccc(NCC(=O)N/N=C\c2ccc[nH]2)cc1 | -7 | -4 | -3 | -12 | i | -9 | -13 | -12
CCOC(=O)C1=C(C)NC(C)=C(C(=O)OCC)C1C | / | -21 | -19 | -4&6 | i | 1 | -2 | 1&-3
CCc1nnc(SCc2cn3c(C)cc(C)nc3n2)n1N | -25 | / | / | -1 | i | 0 | 5 | 12
COc1ccc(N(C(C)C(=O)NN=C2CCCCCCC2)S(C)(=O)=O)cc1 (stereo not drawn) | / | 4 | / | -12 | i | -1 | 1 | 7
COC(=O)c1cc(-c2c(-c3cc(OC)c(OC)c(OC)c3)noc2C)cc([N+](=O)[O-])c1 | -9 | -11 | 26 | -6 | i | 2 | 4 | -4
Cc1nnsc1C(=O)Nc1ccc(S(=O)(=O)N2CCCCC2C)cc1 (stereo not drawn) | -17 | 9 | 10 | 6 | i | 4 | -12 | -4
O=C(CCc1ccccc1)NC(=S)Nc1cc(C(F)(F)F)ccc1N1CCOCC1 | -11 | / | 1 | 2 | i | -42 | -26 | -1
CCOc1ccc(C(=O)NCC(=O)N2CCCCCCC2)cc1OCC | / | -4 | -21 | / | i | 4 | 0 | /
CC(=O)c1nnn(-c2ccccc2C#N)c1C | -20 | 5 | -2 | -1 | i | 1 | 1 | 2
COc1ccc(/C(C)=N/NC2=NCCN2)cc1Cl | -22 | -87 | 2 | 0 | i | 7 | 1 | 8
Cc1cc(C)n2nnnc2c1C#N | -14 | -8 | -4 | 6 | i | 16 | 5 | 10
Cc1nnc(NC(=O)C23CC4CC(C)(CC(C)(C4)C2)C3)s1 | -19 | 19 | -16 | / | i | 0 | -5 | /
O=C(c1cccc(F)c1)N1CCN(c2cc(N3CCCCC3)c(F)cc2[N+](=O)[O-])CC1 | / | / | 12 | -6 | i | 6 | -2 | -6
COc1ccc(-c2nn(-c3ccccc3)cc2/C=N/O)cc1OC | / | -24 | 32 | -8 | i | -8 | -7 | 9
COc1cc(NC(=O)c2ccc(F)cc2)c(OC)cc1NC(=O)CN1CCOCC1 | / | -4 | -4 | 12 | i | 1 | 0 | 9
COC(=O)c1sccc1NC(=O)CN(C)NS(=O)(=O)c1ccc(F)cc1 | -13 | 11 | -7 | -2 | i | -3 | -3 | -3

Next section:
SMILES | UUG fidelity | Env fusion inh | CSC inhib | PABP polyA inh | Rce1 inh | MT1-MMP act inh | MT1-MMP act inh RFP | eIF4H FP inh | others
CCCS(=O)(=O)N1CCN=C1SCc1cccnc1 | / | -4 | -2 | -3 | / | -1 | 1 | 1
O=C(O)c1cc([N+](=O)[O-])ccc1NCc1cccnc1 | -5 | 1 | 5 | 6 | / | 2 | -1 | 1
Cc1nn(CCC(=O)NNC(=S)Nc2cccc(Cl)c2)c(C)c1[N+](=O)[O-] | -34 | -42 | 5 | 12 | i | 11 | 4 | 5
CCC(C)[C@H](N)C(=O)N[C@H]1CCC2C3CC=C4C[C@@H](O)CC[C@]4(C)C3CC[C@@]21C (stereo partly drawn) | -6 | 11 | / | / | / | 1 | -2 | /
O=C(O)c1ccc(Nc2nc3ccc(Cl)cc3[nH]2)cc1 | -13 | 34 | -1 | 7 | + | 2 | 4 | -6
Cc1ccc(NC(=S)N2CCN(c3ccccn3)CC2)c(C)c1 | / | 5 | -14 | 5 | / | 4 | 6 | -2
O=[N+]([O-])c1ccc(Sc2nccn2Cc2ccccc2)cc1 | -28 | 39 | -1 | -6 | i | 4 | 1 | -5
Cc1cccc(NC(=O)N2CCCCCC2)c1 | -8 | -15 | 6 | -5 | i | -4 | -5 | 2
COc1ccc(OC)c(CC(NC(C)=O)C(=O)NC2CCN(S(=O)(=O)c3ccc(NC(C)=O)cc3)CC2)c1 (stereo not drawn) | -6 | 0 | 0 | 8 | i | 2 | 3 | -6
CCc1ccc(NC(=O)c2ccc(C3SCC(=O)N3CCc3ccccc3)cc2)cc1 (stereo not drawn) | 10 | 2 | 54 | -3 | i | 5 | -7 | -4
COc1ccccc1CCNC(=O)c1cnccn1 | -14 | / | / | 13 | i | 2 | 10 | -1
CC(=O)Nc1ccc([N+](=O)[O-])c(CS(=O)(=O)c2ccc(C)cc2)c1[N+](=O)[O-] | -14 | 3 | -14 | -1 | i | 2 | 2 | -20
O=C(Cn1cc([N+](=O)[O-])cn1)Nc1ccccn1 | / | -4 | 1 | -2 | / | 5 | 5 | -15
O=C(CCCn1c(=O)oc2ccccc21)N1CCN(c2ccccn2)CC1 | -3 | -21 | -9 | 10 | i | 2 | 1 | -6
CCOC(=O)c1c(C)noc1-c1ccco1 | -9 | -9 | -18 | -10 | i | 3 | -1 | -4
CCCN(CCC)S(=O)(=O)c1ccc(C(=O)N2CCC(=O)c3ccccc32)cc1 | -5 | / | 18 | -1 | i | 0 | -2 | 1
COc1cccc(-c2cc3nc(-c4ccccc4)cc(=O)n3[nH]2)c1 | -24 | -73 | ? | 15 | i | -5 | -10 | 2
CC(=O)c1cccc(NC(=O)CCCCCn2nnc3ccccc3c2=O)c1 | -9 | 18 | 4 | -1 | i | -4 | -6 | -4
CCN(CC)C(=O)Cn1cc(/C=C(\C#N)C(=O)NC2CC2)c2ccccc21 | 2 | 9 | -10 | -7 | i | -2 | -1 | 3
CN(CC(=O)Nc1ccc(N2CCOCC2)cc1)C(=O)c1cn(-c2ccccc2)nc1-c1ccccc1 | / | -40 | -4 | / | i | 4 | 2 | /
Cc1onc(-c2ccccc2)c1C(=O)NCC(=O)Nc1cc(Cl)ccc1Cl | -29 | / | -5 | / | / | 0 | -2 | /
O=[N+]([O-])c1ccc(Cl)c(CN2CCSCC2)c1 | -1 | 5 | -7 | -8 | i | 1 | 3 | -3
COc1ccc(NC(=O)N2CCC(c3nc(-c4cccs4)no3)CC2)cc1 | -7 | -2 | 2 | 11 | i | 3 | -2 | -9
COc1ccc([C@H]2CC(=O)C=C(c3ccc(OC)c(F)c3)C2)cc1 | -10 | -6 | -6 | / | / | 6 | -1 | /
O=C(NCc1ccccc1)C(=O)NCC(c1ccco1)N1CCN(c2ccccc2F)CC1 (stereo not drawn) | / | 16 | 6 | -5 | i | 1 | 2 | -9

The listing continues.
SMILES | UUG fidelity | Env fusion inh | CSC inhib | PABP polyA inh | Rce1 inh | MT1-MMP act inh | MT1-MMP act inh RFP | eIF4H FP inh | others
CCC(=O)N1CCN(c2ccccc2NC(=O)c2ccc(OC)c(Cl)c2)CC1 | -10 | / | -9 | 0 | i | 0 | -7 | -4
CCOc1ccccc1NC(=O)Nc1ccncc1 | -10 | -17 | 9 | -1 | i | 2 | 4 | -14
O=C(NCc1ccccc1)/C(=C/c1ccccc1)NC(=O)c1ccco1 | 4 | 4 | -4 | -5 | i | 1 | 0 | -14
COc1ccc(N(C)C(=O)Cn2c(=O)oc3ccccc32)c(OC)c1 | -13 | -13 | -5 | 5 | i | -5 | 1 | -9
CC1CCN(C(=O)c2[nH]cnc2C(=O)NCCCCCNC(=O)OC(C)(C)C)CC1 | -10 | 16 | -6 | / | / | 3 | -1 | /
COc1ccc(-c2cc(C)no2)cc1S(=O)(=O)N(C)c1ccc(C)cc1 | -11 | 25 | 61 | 2 | i | -6 | -12 | -6
CCc1cccc2c(=O)c(C(=O)NCCN3CCOCC3)c[nH]c12 | -17 | 10 | -2 | -9 | i | 8 | 2 | -1
CCOc1ccccc1C(=O)NC(C(=O)Nc1cccc(S(N)(=O)=O)c1)C(C)C (stereo not drawn) | -3 | -8 | -7 | -1 | i | -1 | 0 | 2
Cc1ccc(OC(=O)N(C)C[C@H]2OCc3cn(nn3)CCCC(=O)N([C@H](C)CO)C[C@@H]2C)cc1 | -20&7 | 9 | / | / | / | 1 | 3 | /
NC1=NC[C@@H](Cc2ccc(O)cc2)N1CC1CCCCC1 | -10 | 3 | 0 | -2 | i | 0 | 3 | 5
CCOc1ccc(NC(=S)N2C3CCCC2CC(NC(=O)C2CC2)C3)cc1 (stereo not drawn) | -14 | -5 | 6 | -2 | i | 2 | 4 | -16
O=C(NC1CCCCC1)OCCN1CCN(Cc2ccccc2)CCC1=O | / | -10 | -14 | 8 | i | / | / | 1
CSc1ncc(C(=O)Nc2ccccc2C)c(C)n1 | 2 | -10 | -2 | -8 | i | -5 | -7 | 4
Cc1[nH][nH]c(=O)c1C(c1c(C)[nH][nH]c1=O)c1cn(C)c2ccccc12 | / | -44 | / | 10 | / | 1 | 5 | 6
CCOC(=O)c1cnc(Nc2nc3ccccc3o2)nc1CSC(=S)N(CC)CC | / | 0 | / | -6 | i | -8 | -13 | 0
CNC(=O)COC(=O)C1CCN(S(=O)(=O)c2ccc3c(c2)OCCO3)CC1 | -13 | -5 | -13 | / | / | 1 | 2 | /
Cc1ccc(NC(=O)CSCc2cc(=O)n3cc(C)sc3n2)c(C)c1 | -8 | -5 | -2 | 16 | i | 1 | 0 | 6
COc1ccc(S(=O)(=O)N2CCCCC2)cc1NC(=O)COC(=O)c1ccco1 | -6 | -8 | -23 | / | / | 1 | -1 | /
COc1ccc(/C(O)=C2/C(=O)C(=O)N(c3ncccn3)C2c2ccc(F)cc2)cc1 (stereo not drawn) | / | -7 | / | 4 | i | -5 | 0 | 2
CCOc1ccc(/C=N/Nc2cc(C)nc(N3CCOCC3)n2)cc1 | / | -25 | 2 | -1 | i | 1 | -3 | -3
C(=N\Nc1nn[nH]n1)/c1ccccc1 | -4 | / | / | 13 | i | 13 | 0 | -5
CCOC(=O)c1c(NC(=O)c2cc(-c3ccc(Cl)s3)nc3ccccc23)sc(C(N)=O)c1C | -2 | -2 | 14 | -4 | i | 2 | 1 | 34
COc1ccc(/C=N/NC(=O)c2ccn[nH]2)cc1Cn1nc(C)c([N+](=O)[O-])c1C | -16 | 5 | 4 | -6 | i | 4 | -3 | 0
CCCC(=O)N(Cc1cc2cc(C)ccc2[nH]c1=O)c1ccccc1OC | -17 | / | 3 | -10 | i | 3 | 0 | -1

This is a subset (hit frequency here may not be typical).
